UUG fidelity: modulators of start codon recognition fidelity in yeast; S. cerevisiae UUG-firefly luciferase reporter, luminescence/redox ratio; activity score, % at 18.7 µM; hit rate 0.13% among 350,000;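 active means replicate mean at a twofold rise or more, about +100% in these data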;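 further: firefly luciferase made from a UUG start codon reports start codon fidelity; reporter light over untreated wells divided by growth signal over untreated wells; some hits fall short of that in this replicate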
Rce1 inh: inhibitors of yeast Ras-converting enzyme; Q03530; yeast membranes, quenched prenylated peptide cleavage fluorescence; calls only; hit rate 0.27% among 290,000;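 active means fall in fluorescence gain of 50% or more versus controls, with final raw signal at or below 3038400; inconclusive means same 50% fall but final raw signal above 3038400; inactive means fall in fluorescence gain under 50%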;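 further: plate controls were neutral control wells for no effect and wells lacking membranes for full effect; tested at 10 µM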
Target sequence (Q03530 whole entry, looked up): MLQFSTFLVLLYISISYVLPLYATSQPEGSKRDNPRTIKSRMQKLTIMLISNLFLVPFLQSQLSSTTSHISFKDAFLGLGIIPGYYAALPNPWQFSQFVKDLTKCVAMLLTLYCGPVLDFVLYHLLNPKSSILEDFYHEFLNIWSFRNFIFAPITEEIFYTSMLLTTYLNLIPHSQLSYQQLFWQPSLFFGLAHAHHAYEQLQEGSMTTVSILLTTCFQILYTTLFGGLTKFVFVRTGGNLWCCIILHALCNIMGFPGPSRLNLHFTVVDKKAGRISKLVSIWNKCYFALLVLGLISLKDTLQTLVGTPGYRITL
PABP polyA inh: blocks human PABP binding to poly(A) RNA | hit rate 1% among 290,000 | P11940 | inhibition, % at 35 µM | fluorescence polarization;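 active means 50% or more with normal probe brightness, or confirmed in later tests; inconclusive means above 50% with abnormal brightness, or retests that disagree; inactive means below 50% or failed in later tests; about a fifth of its hits are not listed in these tables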;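 further: calls also rest on retests at 20 µM and on dose response follow-up; controls were probe without protein and protein plus probe with vehicle; some compounds called inactive have numbers as strong as hits; many hits fall short of the cut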
Target sequence (P11940 whole entry, looked up): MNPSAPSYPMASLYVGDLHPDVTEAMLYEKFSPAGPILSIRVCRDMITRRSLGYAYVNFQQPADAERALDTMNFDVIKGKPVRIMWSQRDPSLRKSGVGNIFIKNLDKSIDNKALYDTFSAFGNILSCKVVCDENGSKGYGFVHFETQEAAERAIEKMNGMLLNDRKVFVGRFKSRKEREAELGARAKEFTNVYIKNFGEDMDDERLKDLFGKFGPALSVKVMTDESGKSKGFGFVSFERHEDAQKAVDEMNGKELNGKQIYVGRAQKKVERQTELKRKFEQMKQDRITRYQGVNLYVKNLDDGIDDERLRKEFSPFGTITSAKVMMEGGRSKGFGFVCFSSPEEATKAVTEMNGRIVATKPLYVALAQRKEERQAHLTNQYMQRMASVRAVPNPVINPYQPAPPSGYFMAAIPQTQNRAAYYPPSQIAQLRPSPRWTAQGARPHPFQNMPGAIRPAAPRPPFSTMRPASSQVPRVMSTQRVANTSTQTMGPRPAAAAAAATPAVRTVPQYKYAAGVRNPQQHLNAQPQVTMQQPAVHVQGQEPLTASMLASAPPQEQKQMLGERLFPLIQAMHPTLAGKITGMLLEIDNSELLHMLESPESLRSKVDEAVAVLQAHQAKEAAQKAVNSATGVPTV
eIF4H inh: inhibitors of RNA binding by human eIF4H; Q15056; inhibition, % at 35 µM; hit rate 0.94% among 290,000; eIF4H fluorescence polarization binding assay;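 active means 50% or more with normal probe brightness, or confirmed in later tests; inconclusive means above 50% with abnormal brightness, or retests that disagree; inactive means below 50% or failed in later tests; about a fifth of its hits are not listed in these tables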;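 further: calls also rest on retests at 20 µM and on dose response follow-up; 0% = protein and probe with vehicle and 100% = probe without protein; strong numbers were not always called active; many hits fall short of the cut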
MT1-MMP act inh: MT1-MMP (human) activation inhibition | P50281 | HT1080 RFP-PRO-GFP cells, GFP/RFP ratio fluorescence, overnight; percent of plate control window, DMSO zero | GFP/RFP ratio change, % at 20 µM | hit rate 0.061% among 360,000;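 active means GFP/RFP ratio change of at least 30% with cell ATP level not reduced by more than half and red fluorescence within 50% of control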; further: strong numbers were not always called active
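Material: RFP-PRO-GFP reporter HT1080 cells. Dosing: single-point 20 µM compound, 1% DMSO. Controls: DMSO and RFP-L50D-GFP cell wells. Timing: cells overnight before dosing, compound overnight, 37 °C, 5% CO2. Measure: GFP/RFP fluorescence ratio.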
CSC inhib: cancer stem cell inhibition | AID 2717 | inhibition, % at 7.5 µM | hit rate 1.1% among 300,000 | cancer stem cell-like cells viability, luminescence;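 active means mean at 75% or more and at least half the replicates too; inconclusive means mean and replicates disagree; tested in HMLE shEcad cells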;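 further: 0% = median of negative and 100% = median of positive control wells; the first replicate is given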
Env fusion inh: HIV envelope-mediated fusion inhibition; inhibition, % at 12.3 µM; HeLa-JRFL Env/CEM21 cell fusion, luciferase; hit rate 1.1% among 360,000;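 active means mean replicate inhibition score of at least 50 and every replicate individually at or above 50; inconclusive means only one of the two criteria met; inactive means mean below 50 and not all replicates reaching 50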;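 further: 0% = plate neutral controls and 100% = maraviroc near 300 nM; one replicate is shown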
MT1-MMP act inh RFP: second read-out of MT1-MMP act inh, no call of its own (marks repeat the call); RFP signal change, %; measured here: RFP expression control read;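 0 = vehicle wells; hits needed this value within 50% of zero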
* hit, by the source's call; i = inactive; ? = inconclusive; nt = not tested or not shown.

Values run as follows: eIF4H inh	MT1-MMP act inh	MT1-MMP act inh RFP	Rce1 inh	Env fusion inh	UUG fidelity	PABP polyA inh	CSC inhib
- COC(=O)c1ccc(CNC(=O)CSC2=NCCS2)cc1
  4.6	-0.5	1.0	i	14.0	nt	-0.7	-17.3
- N#Cc1c(SCC(=O)Nc2cccc(F)c2)sc2c(O)cc(=O)[nH]c12
  29.3	-4.9	2.3	nt	1.6	-22.0	25.7	-7.5
- COc1cc(OC)cc(C(=O)NC(=S)Nc2ccc(Cl)c(C(=O)O)c2)c1
  -3.9	-3.2	-0.7	i	-139.4	-8.4	-8.9	-10.3
- O=[N+]([O-])c1ccccc1N/N=C/c1c[nH]c2ccccc12
  -6.0	5.1	-8.2	i	nt	0.6	-4.4	-7.8
- c1ccc(-c2nc(NCc3ccco3)c3ccccc3n2)nc1
  12.8	8.1	-0.8	i	nt	1.2	-10.3	-6.2
- NCCNC(=O)c1c(NC(=O)c2ccccc2)sc2c1CCCC2
  -8.8	-3.1	1.8	i	-12.5	-10.0	-3.6	-2.8
- O=C(CCC1CCCC1)NNC(=O)COc1ccc(Br)cc1
  nt	-3.3	2.6	nt	nt	-10.3	nt	-3.2
- Cc1ccc(-n2c(SCC(N)=O)nc3c([nH]c4ccccc43)c2=O)cc1
  -6.6	-3.8	-6.5	i	-28.6	-30.5	1.9	-1.9
- COCCNC(=O)Cn1cnc2sc(C)c(S(=O)(=O)N3CCC(C)CC3)c2c1=O
  2.2	0.4	5.5	i	-2.1	18.2	-1.6	nt
- CC(C)C(=O)Nc1nnc(S(=O)(=O)N2c3ccccc3CC2C)s1 (stereo unspecified)
  -4.0	-1.6	-2.7	i	-4.8	0.6	2.0	-6.7
- O=c1c2c(nc3nc(COc4ccccc4)[nH]n13)CCC2
  -4.2	-1.5	-1.1	i	nt	-17.5	3.4	-2.5
- CCOC(=O)c1c(C)oc2ccc(NS(=O)(=O)c3cccs3)cc12
  -1.6	-0.9	-4.7	i	nt	nt	-2.2	21.1
- Cc1ccc(C(=O)N2N=C3c4ccccc4S(=O)(=O)N3[C@H]2N(C)C)cc1
  -1.8	1.4	0.6	i	7.5	nt	-3.9	2.7
- CC(=O)NNc1ncnc2c1cnn2-c1ccc(C)c(Cl)c1
  6.9	1.8	3.4	i	-28.4	nt	-1.0	28.2
- COC(=O)c1ccc2nc(-c3ccco3)c(Cc3cccc(F)c3)n2c1
  nt	-5.1	-3.1	nt	30.3	-14.4	nt	nt
- Brc1cc2[nH]cnc2c2ccccc12
  -6.2	-3.7	2.5	i	nt	-1.1	3.0	4.1
- COC(=O)c1ccc(C)c(NC(=O)CCCN2C(=O)CN(C)C2=O)c1
  nt	-1.0	3.0	nt	2.1	7.9	nt	6.3
- CCOc1ccccc1N(CC(=O)NCCSc1ccccn1)S(=O)(=O)c1ccc(C)cc1
  85.6*	-0.1	-1.4	i	25.3	7.9	86.1*	-12.9
- Cc1ccc(OCC(O)CN2CCc3ccccc3C2)c(C)c1 (stereo unspecified)
  -23.3	0.0	1.6	i	6.7	-11.6	-1.4	-0.2
- CCOc1ccc([C@@H]2CC=C(C(=O)O)[C@H](c3ccc(F)cc3)N2S(=O)(=O)c2ccc(C)cc2)cc1
  nt	-1.4	4.0	nt	7.7	-1.5	nt	8.4
- O=C(CN1CCN(S(=O)(=O)c2ccc(F)c(Cl)c2)CC1)N1CCNC1=O
  nt	3.1	3.1	nt	-7.7	-19.6	nt	nt
- O=C(NC1CCOCC1)C1CCC(=O)N(CCc2cccc(F)c2)C1 (stereo unspecified)
  3.3	-0.1	3.3	i	-2.8	-27.8	7.2	0.5
- O=C(NCCCc1ccccc1)c1cc(COc2ccc(F)cc2Cl)on1
  -11.5	3.7	4.6	i	24.3	13.9	-0.2	1.7
- CCCOc1ccc(C(=O)C(CCC(CNCC)C(=O)c2ccc(OCCC)cc2)CNCC)cc1 (stereo unspecified)
  1.5	-44.5	-40.3	i	-0.6	-27.6	-0.6	nt
- Cc1cnc(CNC(=O)c2csc([C@@H]3C[C@H](O)[C@@H](CO)O3)n2)cn1
  nt	4.9	3.7	nt	7.9	-22.3	nt	nt
- COc1ccc(NC(=O)N[C@@H](CCSC)C(=O)O)cc1Cl
  -4.5	3.4	6.3	i	nt	-10.5	10.5	-4.8
- COc1ccccc1C(=O)Nc1ccc2c(c1)nc1n2CCN(Cc2ccccc2)C1
  -6.7	-3.6	-2.3	i	-10.3	-10.9	6.8	nt
- Cc1cc(NC(=O)CSCC(=O)Nc2nc3ccc(F)cc3s2)no1
  nt	-3.2	-0.1	nt	25.4	0.0	nt	-22.9
- COc1ccccc1Oc1ccc(N/C=C/C(=O)c2ccc(C)o2)cc1
  3.0	4.2	-6.4	nt	-6.2	-13.6	31.0	10.0
- CC(C)C(C)NC(=O)COc1ccc(S(=O)(=O)N2CCOCC2)cc1[N+](=O)[O-] (stereo unspecified)
  2.1	1.3	2.0	i	-18.6	nt	-11.2	10.2
- CNC(=O)c1csc(-c2ccc(C)cc2)n1
  -5.8	7.0	5.8	i	-349.6	-2.2	-1.9	6.6
- CCC(C(=O)NC1CCCCC1)n1c(SCc2ccc(F)cc2)nc2ccncc21 (stereo unspecified)
  1.0	-1.1	-7.4	i	7.8	0.0	3.5	9.6
- CCOC(=O)C1C(c2ccc(C)o2)NC(=O)NC1(O)C(F)(F)F (stereo unspecified)
  -0.7	1.6	7.3	i	15.2	-9.4	1.4	-9.0
- C=CCN1C(=O)C(C)S/C1=N\S(=O)(=O)c1ccc(Cl)cc1 (stereo unspecified)
  -0.6	2.7	-1.8	i	-12.5	-3.9	25.1	-12.4
- CCOc1ccccc1NC(=O)Cn1nnc(C(=O)NCCc2ccc(OCC)c(OCC)c2)c1N
  -6.5	-0.3	-2.5	i	2.4	-13.3	4.2	0.9
- CS(=O)(=O)N1CCC(C(=O)Nc2ccc(Br)cc2F)CC1
  -4.7	3.9	1.8	i	nt	1.2	-6.5	-12.6
- COc1cc(C(=O)N/N=C/c2cccc(Oc3ccccc3)c2)ccc1O
  -5.7	-3.2	-2.2	i	-11.7	-7.3	-15.0	12.7
- CC1=NOC(=O)/C1=C\c1ccccc1
  0.9	-1.6	-2.0	i	4.5	-18.6	-0.3	14.1
- CCCOc1cc(C)c(S(=O)(=O)n2ccc(C)n2)cc1C
  -9.2	2.1	-4.9	i	nt	-4.8	-2.8	-5.8
- CN1CCN(c2ccc(CNC(=O)C3Cc4c(-c5ccccc5Oc5ccccc5)ccnc4O3)cc2)CC1 (stereo unspecified)
  nt	-1.5	-1.7	nt	-35.8	-29.2	nt	nt
- CC(C)(C)NC(=O)c1cccc2c1OC(C)(C)C2
  0.1	-4.4	-0.9	i	-7.0	4.5	?	-5.8
- O=C(Cc1n[nH]c(=O)c2ccccc12)OCC(=O)c1ccccc1
  nt	-0.2	1.8	nt	nt	-33.8	nt	-4.2
- C=CCNC(=O)c1ccc(C(=O)c2ccccc2)cc1
  2.5	6.3	2.6	i	28.0	-10.9	5.5	5.2
- CC(NC(=O)c1ccccc1F)c1ccccc1 (stereo unspecified)
  -0.3	2.2	-1.5	i	-10.1	nt	0.9	3.9
- CCCc1cc(N2CCOCC2)n2nc(C)c(-c3ccccc3)c2n1
  -6.0	3.4	-0.2	i	6.9	-24.8	-0.5	6.5
- Cc1nc(C(C)NC(=O)CCc2nnc(Cc3c[nH]c4ccccc34)o2)cs1 (stereo unspecified)
  7.8	1.3	3.8	i	2.8	nt	4.9	-9.3
- Cc1ccc(S(=O)(=O)/N=S(/C)c2ccccc2)cc1 (stereo unspecified)
  3.4	1.6	8.9	nt	nt	-4.4	1.9	-3.1
- COc1ccc2c(C)c(CCC(=O)NCCCN3CCCC3=O)c(=O)oc2c1C
  0.5	1.2	-0.3	?	nt	-13.5	36.4	-1.7
- O=C(Nc1nc(-c2ccc(Cl)cc2Cl)cs1)C1CCCO1 (stereo unspecified)
  3.3	-2.6	-12.9	i	32.8	-1.2	-4.0	4.9
- Cc1nnc(NC(=O)C2CCCN(S(=O)(=O)Cc3ccccc3)C2)s1 (stereo unspecified)
  -3.8	-5.8	-0.4	i	nt	-4.9	4.0	-7.3

New compounds follow
Values run as follows: eIF4H inh	MT1-MMP act inh	MT1-MMP act inh RFP	Rce1 inh	Env fusion inh	UUG fidelity	PABP polyA inh	CSC inhib
- O=C(Cc1ccc(Cl)cc1)Nc1ccccc1C(=O)Nc1ccc(C(=O)O)cc1
  -4.2	1.9	-0.2	i	17.8	nt	41.5	-6.4
- O=C(CC1C(=O)NCCN1Cc1ccccc1)NCCN1CCCCC1=O (stereo unspecified)
  4.1	-3.3	6.1	i	5.1	6.8	25.6	nt
- O=C(N/N=C/c1ccc(-n2ccnc2)cc1)c1cccs1
  -3.8	0.4	-0.4	i	75.4*	-8.4	0.7	5.5
- COc1ccc(S(=O)(=O)NCC2CCCN(Cc3ccccc3Cl)C2)cc1 (stereo unspecified)
  -5.0	-1.9	-0.9	i	1.9	-6.9	-4.1	6.2
- ClCc1csc(N/N=C/c2cccs2)n1
  -6.8	nt	nt	i	nt	nt	4.8	-5.5
- COc1ccc(/C=C/C(=O)c2ccccc2)c(OC)c1
  -1.2	-7.6	-2.3	i	-31.9	nt	15.2	2.0
- Cc1cc(=O)n2nc(N3CCCC3C(=O)Nc3ccccc3C)sc2n1 (stereo unspecified)
  -5.0	-2.0	5.6	i	nt	-17.4	-6.2	-1.9
- O=C(NCCN1CCc2ccccc2C1)C1CC(=O)N(C2CCCC2)C1 (stereo unspecified)
  -6.5	-3.5	0.5	i	nt	nt	0.9	nt
- CC(=O)c1cc(C#N)c(Oc2cc(C)cc(C)c2)nc1C
  -8.1	5.6	1.5	i	nt	-0.5	0.9	-4.8
- CCOC(=O)N1CCC(NC(=O)c2cc(C(=O)Nc3ccc(F)cc3F)ccc2CO)CC1
  -8.0	0.5	0.7	i	14.8	-11.0	-14.0	nt
- Cc1ccc(S(=O)(=O)N2CCCCC2C(=O)N2CCN(c3ccccc3F)CC2)cc1 (stereo unspecified)
  2.1	-4.2	-7.8	i	nt	nt	-8.6	nt
- O=C(Nc1ccc(S(=O)(=O)O)cc1)c1ccc2c(c1)S(=O)(=O)c1ccccc1C2=O
  nt	1.7	0.0	i	-33.2	1.0	nt	-8.0
- CSc1sc(C(=O)N(C)C)c2c1S(=O)(=O)N(C)c1ccccc1-2
  -4.7	-1.8	1.4	i	12.6	nt	-2.4	21.1
- CCN1C(=O)c2ccc(-c3nc4ccccc4c(=O)o3)cc2C1=O
  5.2	-1.2	3.6	i	10.6	4.3	-6.5	-15.9
- COc1ccc(C(=O)N/N=C(\C)CC(=O)NC2CCCCC2)c(OC)c1
  -2.5	2.4	4.4	i	-4.4	-11.5	10.5	4.2
- CCOC(=O)C1CCN(C(=O)COc2cccc(C)c2)CC1
  6.7	-1.2	-0.9	i	nt	-5.4	0.4	-18.6
- CN(CCCNC(=O)c1ccc(N2CCCC2=O)cc1)c1ccccc1
  ?	-0.2	-1.6	i	nt	-2.8	-6.2	nt
- CCC(CC)c1nnc(NC(=O)Cc2c[nH]c3ccccc23)s1
  nt	-0.6	4.4	nt	-17.3	-3.9	nt	nt
- Nc1cc(N)nc(SCC(=O)c2ccc3c(c2)NC(=O)CO3)n1
  -8.7	5.9	5.8	i	4.3	15.6	-6.1	0.1
- COCCNC(=O)c1cc2c(=O)n3cccc(C)c3nc2n(Cc2ccncc2)c1=N
  -1.6	-2.5	-3.3	?	-3.6	-11.0	0.5	-10.3
